MT1-MMP act inh: blocks activation of human MT1-MMP | P50281 | HT1080 RFP-PRO-GFP cells, GFP/RFP ratio fluorescence, overnight; percent of plate control window, DMSO zero | GFP/RFP ratio change, % at 20 µM | 360,000 tested, 0.061% active;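 active means GFP/RFP ratio change of at least 30% with cell ATP level not reduced by more than half and red fluorescence within 50% of control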; further: strong numbers were not always called active
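system = RFP-PRO-GFP reporter HT1080 cells | dosing = 20 µM single dose, 1% DMSO | timing = overnight cell settling, then overnight compound exposure, 37 °C, 5% CO2 | read-out basis = GFP/RFP fluorescence ratio | controls = DMSO and RFP-L50D-GFP cell wells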
CSC inhib: cancer stem cell inhibition; cancer stem cell-like cells viability, luminescence; inhibition, % at 7.5 µM; 300,000 tested, 1.1% active; AID 2717;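 active means mean at 75% or more and at least half the replicates too; tested in HMLE shEcad cells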;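 further: 0% = median of negative and 100% = median of positive control wells; the first replicate is given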
UUG fidelity: alters start codon recognition fidelity in yeast; S. cerevisiae UUG-firefly luciferase reporter, luminescence/redox ratio; activity score, % at 18.7 µM; 350,000 tested, 0.13% active; AID 602363;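 active means replicate mean at a twofold rise or more, about +100% in these data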;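 further: firefly luciferase made from a UUG start codon reports start codon fidelity; reporter light over untreated wells divided by growth signal over untreated wells; some hits fall short of that in this replicate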
eIF4H FP inh: inhibitors of RNA binding by human eIF4H. inhibition, % at 35 µM. eIF4H fluorescence polarization binding assay. 290,000 tested, 0.94% active;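 active means 50% or more with normal probe brightness, or confirmed in later tests; about a fifth of its hits are not listed in these tables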;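 further: calls also rest on retests at 20 µM and on dose response follow-up; 0% = protein and probe with vehicle and 100% = probe without protein; strong numbers were not always called active; many hits fall short of the cut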
Rce1 inhib: yeast Ras-converting enzyme inhibition; 290,000 tested, 0.27% active; calls only; AID 2563; yeast membranes, quenched prenylated peptide cleavage fluorescence;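 active means fall in fluorescence gain of 50% or more versus controls, with final raw signal at or below 3038400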;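 further: plate controls were neutral control wells for no effect and wells lacking membranes for full effect; tested at 10 µM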
PABP polyA inh: blocks human PABP binding to poly(A) RNA | fluorescence polarization | inhibition, % at 35 µM | 290,000 tested, 1% active | P11940;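 active means 50% or more with normal probe brightness, or confirmed in later tests; about a fifth of its hits are not listed in these tables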;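 further: calls also rest on retests at 20 µM and on dose response follow-up; controls were probe without protein and protein plus probe with vehicle; some compounds called inactive have numbers as strong as hits; many hits fall short of the cut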
Target sequence (P11940 whole entry, looked up): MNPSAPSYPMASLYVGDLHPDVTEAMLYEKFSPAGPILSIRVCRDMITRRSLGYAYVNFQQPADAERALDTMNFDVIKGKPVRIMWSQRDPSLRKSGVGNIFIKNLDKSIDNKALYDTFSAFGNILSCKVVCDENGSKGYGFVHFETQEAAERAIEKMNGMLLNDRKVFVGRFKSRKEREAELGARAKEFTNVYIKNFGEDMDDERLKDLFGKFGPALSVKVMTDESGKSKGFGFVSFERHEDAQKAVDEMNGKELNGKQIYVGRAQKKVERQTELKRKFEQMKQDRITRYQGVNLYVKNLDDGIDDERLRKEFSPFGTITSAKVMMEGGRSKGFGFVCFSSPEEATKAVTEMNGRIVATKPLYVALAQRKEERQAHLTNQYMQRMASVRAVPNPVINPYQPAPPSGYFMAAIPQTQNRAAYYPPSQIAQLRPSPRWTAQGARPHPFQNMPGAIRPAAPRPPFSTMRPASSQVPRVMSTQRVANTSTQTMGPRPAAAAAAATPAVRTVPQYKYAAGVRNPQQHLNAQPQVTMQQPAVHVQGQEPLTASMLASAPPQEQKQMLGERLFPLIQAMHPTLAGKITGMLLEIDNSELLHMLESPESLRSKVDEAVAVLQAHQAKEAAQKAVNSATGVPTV
HIV Env fusion: HIV envelope-mediated fusion inhibition | HeLa-JRFL Env/CEM21 cell fusion, luciferase | inhibition, % at 12.3 µM | 360,000 tested, 1.1% active;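 active means mean replicate inhibition score of at least 50 and every replicate individually at or above 50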;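 further: 0% = plate neutral controls and 100% = maraviroc near 300 nM; one replicate is shown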
MT1-MMP act inh RFP: second read-out of MT1-MMP act inh, no call of its own (marks repeat the call); RFP signal change, %; measured here: RFP expression control read;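 0 = vehicle wells; hits needed this value within 50% of zero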
* hit, by the source's call; i = inactive; / = not tested or not shown.

SMILES	MT1-MMP act inh	MT1-MMP act inh RFP	CSC inhib	UUG fidelity	eIF4H FP inh	Rce1 inhib	PABP polyA inh	HIV Env fusion
Nc1ccnc(C(F)(F)F)c1C(=O)c1ccccc1	1	-2	-7	-13	-7	i	1	/
Cc1ccc(OCc2nnc(N)s2)cc1C	3	-2	-8	-25	7	i	-7	-22
COc1ccccc1NC(=O)Cn1cncc1-c1ccc([N+](=O)[O-])cc1	11	5	-21	/	0	i	4	/
COC(=O)Cc1c(O)ccn(Cc2cccc3ccccc23)c1=O	7	2	-1	-16	-10	i	8	7
O=C(NCc1ccccc1Cl)C(=O)c1c[nH]c2ccccc12	0	1	2	/	-9	i	-3	-64
Cc1ccc(S(=O)(=O)n2nc(C)c(C#N)c2N)cc1	4	5	-10	/	-9	i	0	4
CCOC(=O)C1CCN(C(c2ccccn2)c2c(C)[nH]c3ccccc23)CC1 (centres undefined)	-1	-2	0	-37	-7	i	-1	/
O=C(NNc1ccccc1)C(CCO)C(=O)NNc1ccccc1	-7	1	-2	/	2	i	-10	4
CC(C)C1COS(=O)(=O)NC1CC(=O)SC(C)(C)C (centres undefined)	5	-3	19	-18	-7	i	-6	-5
CN(C(=O)c1cccc(NC(=O)Cc2cccc(NC(=O)C3CCN(C(=O)C4CCC4)CC3)c2)c1)C1CCC1	3	-2	/	2	/	/	/	10
Cc1ccc(C(=O)Cn2nnc3ccccc32)cc1C	-1	-2	-4	-28	-13	i	-12	-118
N#CCCn1[nH]c(-c2ccccc2)cc1=O	-1	1	-9	-6	-6	i	-3	-44
CC1(C(=O)N/N=C/c2cc3c(cc2Br)OCO3)CC1(Br)Br (centres undefined)	-6	-4	-6	-22	19	/	-5	102*
O=S1(=O)C=C(SCc2ccc(Cl)c(Cl)c2)Nc2ccccc21	5	-4	7	-11	-8	i	-13	/
Nc1nonc1-n1nnc(C(=O)N/N=C/c2ccc(OCc3ccc(F)cc3)cc2)c1COc1ccccc1	-11	-4	26	-32	6	i	-1	-35
CCCCC(=O)Nc1ccc(C(=O)NCCc2ccc(S(N)(=O)=O)cc2)cc1	3	8	-12	/	11	i	4	11
COc1ccc(Nc2nc(N)nc(CSc3nnc(C)s3)n2)cc1	8	7	-5	/	-4	i	3	/
CCCCN(C)C(=O)c1cn(C)c2ccc(S(=O)(=O)N3CCC(C)CC3)cc2c1=O	1	3	-7	5	7	i	2	/
CCCN=C1N(CC)C[C@@H]2[C@@H]3C(=O)N(C)C(=O)[C@@H]3[C@](Cc3ccccc3)(C(=O)OC)N12	-4	1	/	-6	/	/	/	10
COc1cccc(C2=CC(=O)CC(C)(C)C2)c1	-5	-2	-8	-19	/	/	/	26
O=C1N/C(=N/N=C/c2ccccc2O)SC1Cc1ccc(F)cc1 (centres undefined)	2	-1	49	/	3	i	0	7
O=C(C1CCCN1C(=O)c1cccs1)N1CCN(S(=O)(=O)c2ccc(F)cc2)CC1 (centres undefined)	-2	2	/	-10	/	/	/	6
Cn1c(=O)c2c(nc3n2CC(CO)O3)n(C)c1=O (centres undefined)	-2	3	-8	18	-7	i	7	-15
Cc1nnc(NS(=O)(=O)c2ccc(F)cc2)s1	-2	3	/	-25	/	/	/	8
CCOC(=O)C1=C(C)Nc2ccccc2N/C1=N\S(=O)(=O)c1cc(C(=O)O)ccc1Cl	2	1	0	-2	/	/	/	/
CC1CN(c2snnc2C=C2C(=O)OC(C)(C)OC2=O)CC(C)O1 (centres undefined)	-5	0	-4	1	15	i	8	3
O=C1/C(=C/c2cccnc2)SC(=S)N1N1CCOCC1	1	0	4	/	-13	i	-4	10
O=C(c1n[nH]c2c1CCC2)N1CCCC(Nc2cccc(F)c2)C1 (centres undefined)	2	1	13	-3	-7	i	4	5
COc1ccc(S(=O)(=O)N(C)C)cc1NC(=O)COC(=O)c1nn(C)c(=O)c2ccccc12	2	2	6	/	3	i	10	-36
Cc1occc1-c1nnc(SCC(=O)N2c3ccccc3CCc3ccccc32)n1C	-2	1	-9	-11	-9	i	4	/

Shown as labelled records: 3 of the compounds above.
CN(C(=O)c1cccc(NC(=O)Cc2cccc(NC(=O)C3CCN(C(=O)C4CCC4)CC3)c2)c1)C1CCC1
  MT1-MMP act inh = 3
  MT1-MMP act inh RFP = -2
  CSC inhib = /
  UUG fidelity = 2
  eIF4H FP inh = /
  Rce1 inhib = /
  PABP polyA inh = /
  HIV Env fusion = 10

Cc1ccc(C(=O)Cn2nnc3ccccc32)cc1C
  MT1-MMP act inh = -1
  MT1-MMP act inh RFP = -2
  CSC inhib = -4
  UUG fidelity = -28
  eIF4H FP inh = -13
  Rce1 inhib = i
  PABP polyA inh = -12
  HIV Env fusion = -118

N#CCCn1[nH]c(-c2ccccc2)cc1=O
  MT1-MMP act inh = -1
  MT1-MMP act inh RFP = 1
  CSC inhib = -9
  UUG fidelity = -6
  eIF4H FP inh = -6
  Rce1 inhib = i
  PABP polyA inh = -3
  HIV Env fusion = -44

Later entries.
SMILES	MT1-MMP act inh	MT1-MMP act inh RFP	CSC inhib	UUG fidelity	eIF4H FP inh	Rce1 inhib	PABP polyA inh	HIV Env fusion
CC(NS(C)(=O)=O)C(c1cccs1)N1CCN(c2ccc(F)cc2)CC1 (centres undefined)	3	-2	/	-3	0	i	-5	/
COc1ccccc1/C=C/C(=O)NCCc1ccccn1	2	3	10	-23	11	i	-5	-11
NS(=O)(=O)OCCCCCc1ccccc1	1	-1	5	-23	2	i	-4	-16
COc1cccc(CNC(=O)c2nnn(CC(=O)Nc3c(C)cccc3C)c2N)c1	-1	1	-4	-4	-18	i	3	4
COc1ccccc1N(CC(=O)Nc1ccccc1C(=O)N1CCOCC1)S(C)(=O)=O	0	-3	-11	-13	-7	i	2	-2
Cc1ccc2cn[nH]c2c1NC(=S)NC(=O)c1ccccc1	1	1	8	-29	-5	i	2	-10
O=C(Nc1ccc(Cl)cc1F)c1ccccc1Br	1	5	-6	/	-4	i	9	/
Cc1cc(C)c(OCCN(C)C)c(Cl)c1	0	1	/	/	2	i	1	9
O=C(Nc1ccc(N2CCCC2)c(Cl)c1)c1cccs1	2	-2	7	/	1	/	7	-162
O=[N+]([O-])c1c(C(Cl)Cl)nn(-c2ccc(Cl)cc2)c1N1CCCCC1	-2	-12	44	-11	-4	i	-9	3
O=C(Nc1cccc(Br)c1)c1ccc(Cl)c(S(=O)(=O)N2CCOCC2)c1	13	-23	4	-6	1	i	3	/
COc1ccccc1C(=O)N1CCc2ccccc21	-2	2	-1	6	4	i	1	6
O=C(CSc1cccc[n+]1[O-])c1cc(Cl)ccc1Cl	2	5	-1	/	-4	i	-10	-11
Cc1cccc(N(CC(=O)NCCSCc2ccco2)S(=O)(=O)c2ccccc2)c1	-2	-1	28	-15	4	i	-5	-187
COCC(=O)Nc1ccc(N(C)C)cc1	0	4	1	/	-4	i	8	-4
COc1ccc(C)cc1NC(=O)c1sc2ncnc(N3CCN(c4ccccn4)CC3)c2c1C	3	-7	-1	4	10	i	19	14
COc1ccc(/C(C)=N/N2CCCCC2)c(O)c1	0	2	3	-12	-7	i	0	-2
N/C(=N\OC(=O)CCCc1ccccc1)c1ccc(Br)cc1	1	1	7	0	-9	i	7	-9
O=C(Cc1noc2ccccc12)NNC(=S)Nc1ccc(Cl)cc1	-1	-2	-17	-34	7	i	-14	-7
COc1ccc(C)cc1NS(=O)(=O)c1ccc(Cl)nc1	-1	2	0	-9	/	/	/	13
Cc1ccc(-c2cc(C(=O)Nc3c(C)n(C)n(-c4ccccc4)c3=O)c3ccccc3n2)cc1	7	1	-1	-19	/	/	/	-16
COc1ccc(CCNC(=O)CN(c2cc([N+](=O)[O-])ccc2OC)S(C)(=O)=O)cc1OC	-3	2	4	/	-10	i	1	6
C/C(CCC1CC(C)OC1=O)=N\NC(N)=O (centres undefined)	2	-2	4	-12	-12	i	-4	-11
CC1CN(S(=O)(=O)c2ccc(NC(=O)CCCN3C(=O)c4ccccc4C3=O)cc2)CC(C)O1 (centres undefined)	1	-2	/	13	-2	i	-6	/
CC(C)(C)c1ccc2c(c1)OC(C(=O)N/N=C\c1ccccn1)CO2 (centres undefined)	16	2	10	/	7	i	-1	/
O=C(O)c1cccc(Nc2ncnc3sccc23)c1	-3	1	14	/	6	i	2	9
Cc1ccc(Nc2nc(N)nc(CSc3ncccn3)n2)cc1	-2	-5	0	-23	10	i	8	-212
CCOc1ccc(C2C3=C(CC(C)(C)CC3=O)N(CC(=O)O)C3=C2C(=O)CC(C)(C)C3)cc1OCC	-2	2	-19	1	3	i	-5	3
COc1cccc(NC(=O)C2COc3ccccc3O2)c1 (centres undefined)	-1	3	6	-17	-4	i	-2	-28
CCCC1=C(C(=O)OCC)C(c2c(C)nn(-c3ccccc3)c2Cl)C(C#N)=C(N)O1 (centres undefined)	5	3	-14	4	6	i	17	/
COc1ccccc1CNC(=O)CN(C)S(=O)(=O)c1ccc2c(c1)c(=O)n(C)c(=O)n2C	2	2	-14	-8	-2	i	7	9
COc1ccccc1CN(C)CC(=O)Nc1cccc2ccccc12	-5	-4	8	1	-3	/	-2	4
CCn1cc(CN2CCC(n3nccc3NC(=O)CCCc3ccccc3)CC2)c(C)n1	2	0	-2	2	-13	i	-2	-2
CCn1c(=O)c2sccc2n(CC(=O)NC2CCCCC2)c1=O	10	2	-10	-1	5	/	12	6
CCOC(=O)N1CCN(S(=O)(=O)c2ccc3[nH]c(=O)oc3c2)CC1	5	1	-18	/	0	i	-5	5
NS(=O)(=O)c1ccc2nc(NC(=O)c3ccc4ncsc4c3)sc2c1	-3	-2	5	-11	0	i	2	/
COc1cccc(C(=O)OCC(=O)Nc2sc3c(c2C(N)=O)CCC3)c1O	-4	5	/	-16	/	/	/	0
CC1CCCN(c2cc3c(cc2[N+](=O)[O-])C(=O)N(c2ccccc2)C3=O)C1 (centres undefined)	3	0	-5	-9	0	i	0	16
CC(C)OC(=O)C(CC(=O)O)N1CCOCC1 (centres undefined)	2	3	-13	-5	-8	i	5	/
Cc1ccc(C(=O)NCCn2cc(SCC(=O)Nc3nnc(C)s3)c3ccccc32)cc1	2	0	-13	-19	-2	i	5	-90
O=C(c1ccncc1)N1CCN(S(=O)(=O)c2cccc(F)c2)CC1	-2	2	-6	0	-7	i	14	/
COc1ccccc1/C=C/C=N/NC(=O)Cc1cccs1	-1	1	/	-5	-7	i	-1	-15
O=C(O)c1ccc(NS(=O)(=O)c2ccc(Cl)c(C(=O)Nc3ccccc3[N+](=O)[O-])c2)cc1	0	6	-21	-12	2	i	4	19
O=C(NC(c1ccc(Cl)cc1)c1ccccn1)C1CCN(CCOc2ccc(Cl)cc2Cl)CC1 (centres undefined)	1	-2	/	-14	/	/	/	10
COc1cc(OC)cc(-c2nnc(SCC(=O)N3c4ccccc4Sc4ccccc43)o2)c1	-3	-5	20	/	/	i	/	/
COc1ccc(SCCc2ccncc2)cc1	4	3	-6	/	4	i	4	15
Fc1cccc(NC(=S)N2CCN(c3ccccn3)CC2)c1	3	-3	12	-16	-10	i	-4	7
COc1ccccc1NS(=O)(=O)c1cc(NC(=O)CN2C(=O)NC3(CCCC3)C2=O)ccc1C	4	-2	-8	-6	/	i	/	-3
CCOc1ccc(C(=O)NC2CCN(C(=O)N3CCCC3)CC2)cc1	0	-1	-10	-1	-10	/	-4	/
COc1ccc(C)cc1NC(=O)c1cccc(C(=O)Nc2cc(C)ccc2OC)c1	0	-4	0	-15	-9	i	2	10

(next part)
SMILES	MT1-MMP act inh	MT1-MMP act inh RFP	CSC inhib	UUG fidelity	eIF4H FP inh	Rce1 inhib	PABP polyA inh	HIV Env fusion
Cc1ccc(NC(=O)NCC2CC2(Cl)Cl)cc1 (centres undefined)	-7	-4	6	-23	-5	i	-2	-3
Cc1cc(C)c(NC(=O)CN(C)C(=O)c2ccc(OCc3ccccc3)cc2)c(C)c1	3	0	10	-9	/	/	/	/
CCCOc1ccc2cc(-c3ccccn3)c(=O)oc2c1	-1	0	26	-74	-7	i	4	3
CC1(C)OC(=O)N(CCC(=O)Nc2cccc(F)c2)C1(C)O (centres undefined)	0	3	-4	-19	-6	i	4	1
CC(C)C(=O)N1CCN(c2ccccc2NC(=S)NC(=O)c2ccco2)CC1	/	/	14	-15	-1	i	6	-4

Screening results deposited in PubChem BioAssay by several laboratories.
